Assay outcomes (PubChem BioAssay)
RecA splice inh = Mtb RecA intein splicing inhibitors, primary screen, biochemical, fluorescence, HTS. cell-free RecA intein splicing. inhibition, %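 (about 9 µM by stock and volumes)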. 290,000 compounds, 0.75% hits. AID 2221, 2009; in the data active = inhibition above about 30%; inconclusive = no clear call, values can overlap the other calls;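 note: 0% = vehicle wells and 100% = reference inhibitor control wells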
Target sequence (P9WHJ3 whole entry, looked up, canonical isoform): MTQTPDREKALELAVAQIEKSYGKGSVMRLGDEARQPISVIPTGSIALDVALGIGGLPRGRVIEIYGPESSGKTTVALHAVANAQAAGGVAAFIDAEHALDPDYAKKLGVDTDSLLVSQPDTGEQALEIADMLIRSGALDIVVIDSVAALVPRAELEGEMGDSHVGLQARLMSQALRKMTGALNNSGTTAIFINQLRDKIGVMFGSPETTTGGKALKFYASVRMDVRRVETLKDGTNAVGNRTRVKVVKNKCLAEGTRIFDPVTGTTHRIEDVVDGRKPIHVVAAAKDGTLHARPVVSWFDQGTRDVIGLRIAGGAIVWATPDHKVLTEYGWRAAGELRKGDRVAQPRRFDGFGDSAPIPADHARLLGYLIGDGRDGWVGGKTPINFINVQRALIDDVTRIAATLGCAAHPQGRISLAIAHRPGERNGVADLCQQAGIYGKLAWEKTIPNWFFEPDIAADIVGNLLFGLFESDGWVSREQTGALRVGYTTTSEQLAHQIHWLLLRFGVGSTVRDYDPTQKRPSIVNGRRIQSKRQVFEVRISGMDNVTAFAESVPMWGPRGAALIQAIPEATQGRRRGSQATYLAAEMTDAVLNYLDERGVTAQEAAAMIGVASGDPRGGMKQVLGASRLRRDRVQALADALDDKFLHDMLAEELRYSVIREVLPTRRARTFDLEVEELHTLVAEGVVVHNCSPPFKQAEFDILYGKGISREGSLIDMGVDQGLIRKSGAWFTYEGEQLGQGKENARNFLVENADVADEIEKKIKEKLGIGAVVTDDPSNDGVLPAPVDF
Mtb bLac sens = beta-lactam sensitization of Mtb H37Rv, H37Rv | M. tuberculosis H37Rv growth with meropenem, percent inhibition; hits of this screen are not shown here | 330,000 compounds, 0.27% hits | inhibition, % at 25 µM | AID 434955, 2010;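 active = about 74% or more and at least 40 points above the plate without the antibiotic, then above 30% in a dose series; inconclusive = first-round hits that could not be retested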;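 note: growth measured after seven days incubation then overnight dye step; 0% = bacteria only wells and 100% = bacteria with antibiotic; twin plates without the antibiotic show which effects depend on it; some results filed as inactive read as strong as hits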
YopH inh = YopH tyrosine phosphatase inhibitors, primary screen, biochemical, fluorescence Ex485/Em525; inhibition, %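 (about 10 µM by stock and volumes)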; 140,000 compounds, 0.16% hits; AID 898, 2007;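 active = inhibition of 50% or more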;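 note: controls were vehicle for no effect and minimum signal wells for full effect; inactives centre near -20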
Arbovirus anti = antivirals against arbovirus infection, primary screen, cell-based, full library, 10K replicate subset; arbovirus infection cell-based antiviral screen; inhibition, % at 10 µM; 200,000 compounds, 0.37% hits;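 active = inhibition from about 30%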;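 note: bluetongue infection of BSR cells; cell survival read as ATP light after 72 h; 0% = infected wells without compound and 100% = uninfected wells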
Mtb growth = M. tuberculosis H37Rv growth inhibitors, H37Rv strain (AID 1626); M. tuberculosis H37Rv growth inhibition; higher % means a stronger effect; one-dose inhibition, % at 10 µM; IC50 in µM for titrated hits; 220,000 compounds, 0.95% hits;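 active = confirmed in a dose series; inconclusive = inhibition above 80% but not taken into the dose series; inactive = below 80% or under 30% at every dose of the series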;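 note: bacteria incubated seven days before Alamar blue readout; 0% = bacteria only wells and 100% = bacteria with antibiotic wells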
Arbovirus anti repeat = recorded beside Arbovirus anti, whose call it bears; inhibition, %; measured here: 10K subset replicate screen; many hits read low in the repeat;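 first of two repeat runs on a subset; 0% = infected and 100% = uninfected wells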
Numbers without * were called inactive; ? = inconclusive; · = no result given. An excerpt. The share of hits here may be higher or lower than overall.

SMILES	RecA splice inh	Mtb bLac sens	YopH inh	Arbovirus anti	Mtb growth	others
Cc1ccc(S(=O)(=O)N(CCC(=O)Nc2ccc(OC(F)(F)F)cc2)c2ccccc2)cc1	2.8	-1	-27	-17	2%
CC(=O)NCCc1nc2cc(NC(=O)c3ccccc3C)ccc2n1C	3.0	-4	·	·	·
CCn1c(SCC(=O)Nc2ccc3c(c2)OCCO3)nnc1-c1cccs1	-0.7	0	-20	-4	0%
NC(=O)NCc1ccccc1Cl	·	0	·	0	2%
O=C(CN1C(=O)S/C(=C\c2ccc(-c3cc(C(=O)O)ccc3Cl)o2)C1=O)Nc1ccc2c(c1)OCO2	-4.6	-4	·	·	·
COc1ccc(C)cc1NC(=O)CN1CCN(S(=O)(=O)c2ccc(Br)cc2)CC1	1.4	7	-34	10	-3%
O=C(CCc1nc(-c2ccccc2F)no1)NCCc1ccccc1Cl	1.7	-7	-71	5	7%
Nc1cc(-c2ccccc2)nn1S(=O)(=O)c1ccc(F)cc1	2.3	3	-47	-4	5%
O=C(NC(=S)Nc1ccccc1Cl)C1CC1	1.9	9	·	·	·
CCOC(=O)C1(CCCc2ccccc2)CCN(C(=O)c2ccoc2)CC1	3.1	-1	·	6	14%
COc1ccc(-c2[nH]ncc2-c2nc(C)cs2)c(O)c1	·	-12	·	2	-5%
O=C(NCc1ccc2c(c1)OCO2)c1cccc([N+](=O)[O-])c1	-2.8	-1	-16	-6	12%
O=C(CNC(=O)c1ccc(Br)o1)NC1CCCCCC1	0.5	-9	·	·	·
O=C(Nc1ccc(Cl)cc1C(=O)Nc1ccccn1)c1ccco1	0.2	-8	-26	-1	13%
CC(C)(C)N1CC23CCC(C[C@@H]2C1=O)O3 (some centres not stated)	0.2	4	·	·	·
CCOC(=O)C1=C(c2ccccc2)NC(=O)NC1c1cc(Cl)c(O)c(OC)c1 (configuration not stated)	2.8	-1	·	0	1%
Cc1ccc(Nc2ncc3c(n2)CC(C)CC3=O)c(C)c1 (configuration not stated)	·	-11	·	·	-2%
COc1cc(C2SC(C)C(=O)N2CCc2ccccc2)cc(OC)c1OC (configuration not stated)	2.1	4	·	7	6%
Cc1cccnc1NC(=O)C1CC(=O)N(c2ccc3c(c2)OCCO3)C1 (configuration not stated)	-1.2	5	·	·	·
O=C(NNC1=Nc2ccccc2SC1)c1cccc([N+](=O)[O-])c1	1.5	41	·	·	2%
Cc1ccc(NS(=O)(=O)c2ccc(-n3cccn3)cc2)cc1C	-1.7	8	·	·	·
COC(=O)c1c(NC(=O)CS(=O)(=O)c2ccccc2)sc(C)c1C	2.6	-3	·	·	·
O=C(Nc1ccccc1N1CCCC1)C1CCN(S(=O)(=O)c2ccccc2C(F)(F)F)CC1	-2.1	-8	·	·	·
CNc1nnc(CSc2nc(C)cc(C)n2)s1	0.3	-6	12	-4	-5%
Cc1ccc(NC(=S)NN(C)c2nc(C)cnc2C)cc1	1.8	1	-22	-2	-7%

Structures above containing a CF3 group (two):
SMILES	RecA splice inh	Mtb bLac sens	YopH inh	Arbovirus anti	Mtb growth	others
Cc1ccc(S(=O)(=O)N(CCC(=O)Nc2ccc(OC(F)(F)F)cc2)c2ccccc2)cc1	2.8	-1	-27	-17	2%
O=C(Nc1ccccc1N1CCCC1)C1CCN(S(=O)(=O)c2ccccc2C(F)(F)F)CC1	-2.1	-8	·	·	·

Next section:
SMILES	RecA splice inh	Mtb bLac sens	YopH inh	Arbovirus anti	Mtb growth	others
CCOc1cc(/C=N/Nc2nc(-c3cccs3)c(NC(C)=O)s2)ccc1O	8.4	·	·	·	-11%
CCO[C@H]1OC(C(=O)NCc2nc3ccccc3[nH]2)=C[C@@H](c2ccc(C(F)(F)F)cc2)[C@@H]1CCCO	0.3	93	·	-17	4%
O=C(Nc1ccc(Br)cc1)C(c1ccccc1)c1ccccc1	·	-3	·	-4	-4%	Arbovirus anti repeat=5
O=C(c1ccccc1)N1CCN(CC#Cc2ccccc2)CC1	-1.4	5	-41	-12	4%
O=C(CCCN1CCC(NC(=O)c2ccccc2)CC1)c1ccc(Cl)cc1	0.7	7	·	·	·
CC(O)c1cccc(NC(=O)CCCc2ccccc2)c1 (configuration not stated)	·	8	·	-14	0%
CC1(C)Cc2c(sc3c2C(=O)N(c2ccccc2)C2=NCCCN23)CO1	-0.7	-6	-32	-3	2%
Cc1ccc(CC(=O)NCc2ccc(F)cc2)cc1	-2.2	8	·	-13	14%
O=C(COc1ccccc1)NC1CCCN(Cc2ccccc2F)C1 (configuration not stated)	2.8	-2	·	·	·
CC1Oc2ccccc2N(CC(=O)c2ccc(F)cc2)C1=O (configuration not stated)	0.7	-6	·	0	10%
Cc1ccc([N+](=O)[O-])c(OCCN2CCCCCC2)c1	1.9	-2	-37	0	10%
COC(=O)[C@H](Cc1ccccc1)NC(=O)N1CCCCC1	1.2	1	·	·	-10%
O=C1CN(C(=O)COc2ccc(Cl)cc2Cl)c2ccccc2N1	1.3	7	·	·	·
Cc1c(C)c2ccc(OCC(=O)Nc3nccs3)cc2oc1=O	1.0	0	·	·	·
CC1=C(C(=O)Nc2ccccc2)C(c2ccc(C)o2)n2c(s/c(=C\c3ccco3)c2=O)=N1 (configuration not stated)	3.3	·	-56	-7	11%
CCCCOC(=O)n1c(SCC(=O)N(CC)CC)nc2ccccc21	2.8	?	-5	0	17%
Fc1cc2nccnc2cc1N1CCSCC1	-4.3	11	3	-2	-3%
CCC(=O)c1ccc(N2CCN(C(=O)COc3ccc(F)cc3)CC2)c(F)c1	1.0	50	-9	9	13%	Arbovirus anti repeat=10
CC(=O)N/C(=C\c1ccccc1)C(=O)OCC(=O)NC(=O)c1ccccc1	-2.6	-8	·	·	·
CCCOc1ccc(-c2nc(C#N)c(N3CCc4ccccc4C3)o2)cc1	7.4	5	-20	0	-2%
COc1cc(NC(=O)CSc2nnc(-c3ccncc3)n2C2CCCCC2)ccc1NC(=O)c1ccco1	·	7	-15	8	0%
CC(C)C(NC(=O)c1c(F)cccc1F)C(=O)N1CCN(c2ccccc2F)CC1 (configuration not stated)	-0.4	8	·	·	·
CC1(C)CC(=O)c2cn3c(nc2C1)nc1ccccc13	-0.8	-4	-31	5	0%
COc1ccc(C(=O)Nc2ccc(C)cc2C(=O)c2ccccc2)cc1	0.7	64	-23	-1	38%
C=CC[n+]1ccn(-c2nc3ccccc3nc2[N-]S(=O)(=O)c2cccs2)c1	-27	95	·	·	0%

Reprinted from the part before: 6 compounds; new compounds follow.
SMILES	RecA splice inh	Mtb bLac sens	YopH inh	Arbovirus anti	Mtb growth	others
CCCOc1ccc(-c2nc(C#N)c(N3CCc4ccccc4C3)o2)cc1	7.4	5	-20	0	-2%
COc1cc(NC(=O)CSc2nnc(-c3ccncc3)n2C2CCCCC2)ccc1NC(=O)c1ccco1	·	7	-15	8	0%
CC(C)C(NC(=O)c1c(F)cccc1F)C(=O)N1CCN(c2ccccc2F)CC1 (configuration not stated)	-0.4	8	·	·	·
CC1(C)CC(=O)c2cn3c(nc2C1)nc1ccccc13	-0.8	-4	-31	5	0%
COc1ccc(C(=O)Nc2ccc(C)cc2C(=O)c2ccccc2)cc1	0.7	64	-23	-1	38%
C=CC[n+]1ccn(-c2nc3ccccc3nc2[N-]S(=O)(=O)c2cccs2)c1	-27	95	·	·	0%
O=C(CN(c1ccccc1)S(=O)(=O)c1ccccc1)NCCSc1nc2ccccc2s1	-4.1	-14	-39	17	8%
CCN(CC)S(=O)(=O)c1ccc(/C=C/C(=O)NC2CCCCC2)cc1	2.2	5	·	·	·
CCOC(=O)C1=C(C)N=c2s/c(=C/c3ccc(OCC(=O)O)cc3)c(=O)n2C1c1ccc(SC)cc1 (configuration not stated)	-9.6	8	·	·	·
COC(=O)C1=C(CSCc2ccccc2)NC(=O)NC1c1cc(C)ccc1C (configuration not stated)	2.3	-7	-10	3	2%
COc1ccc(OC)c(CNC(=O)c2coc(=O)c3ccccc23)c1	1.2	-2	·	15	0%
O=C(Cc1ccccn1)c1ccc(F)cc1	0.5	25	·	·	·
O=C(O)C1=C[C@@H](c2coc3ccccc3c2=O)C[C@@H](OCc2ccc(CO)cc2)O1	-2.7	-8	·	1	-9%
Cc1[nH]c(=S)[nH]c(=O)c1CCC1OCCO1	-3.7	8	·	·	-3%
COC(=O)c1ccc(-n2nnnc2SCC(=O)Nc2ccccc2C(=O)OC)cc1	1.0	·	-22	2	·
CC(=O)Nc1ccc(C(=O)N2CCc3cc4c(cc3C2C)OCCCO4)cc1 (configuration not stated)	-0.4	1	·	·	·
CC1(c2ccc(Cl)cc2)NC(=O)N(CC(=O)N2CCN(S(=O)(=O)c3ccccc3)CC2)C1=O (configuration not stated)	2.1	-14	·	·	·
Cc1ccc(-n2cccc2/C=C2/NC(=O)N(CC(=O)Nc3cccc(C)c3)C2=O)cc1	0.5	5	-19	6	-1%
CCOC(=O)CSc1nnc(CNC(=O)c2ccco2)n1C	-2.9	-16	-21	12	-1%
Oc1ccccc1OCC(O)c1ccccc1 (configuration not stated)	-0.3	-6	·	·	·
CN1CCN(c2ccc(NC(=O)c3ccc(-c4cccc([N+](=O)[O-])c4)o3)cc2)CC1	4.8	·	·	-1	?
CCC(=O)N1c2ccccc2C(N(C(C)=O)c2ccccc2)CC1C (configuration not stated)	1.3	9	-8	-12	-17%
O=C1CN(S(=O)(=O)c2ccccc2)c2ccccc2N1	-0.9	6	·	-6	-1%
COCCCN1C(=O)CS/C1=N\S(=O)(=O)c1ccccc1	3.6	-9	·	·	-1%
CCOc1ccc(OCc2cccc(C(=O)N/N=C/c3cccnc3)c2)cc1	-1.7	89	-14	-8	51%
COc1ccc(C2CC(=O)Nc3ccccc3S2(=O)=O)cc1OC (configuration not stated)	·	-5	-28	6	-14%
O=C1CC(N2CCN(S(=O)(=O)c3cccc(C(F)(F)F)c3)CC2)C(=O)N1Cc1ccccc1 (configuration not stated)	0.0	-6	-20	1	6%
Cc1cc(C)c(C#N)c(SCC(=O)N(C)C2CCCCC2)n1	1.8	-5	-39	-4	3%
CCOC(=O)CN1C(=O)S/C(=C\c2ccc(-c3cccc(C(=O)O)c3C)o2)C1=O	-42	19	·	·	·
COc1ccccc1/C=C1\S/C(=N/NC(=O)c2cccc(Br)c2)NC1=O	-4.4	76	-16	-18	9%
COCCNC(=O)c1c[nH]c2ccc(S(=O)(=O)N3CCc4ccccc43)cc2c1=O	-2.1	-2	·	12	3%
New compounds follow.
SMILES	RecA splice inh	Mtb bLac sens	YopH inh	Arbovirus anti	Mtb growth	others
CCOCCCn1cnc2c(c1=O)c1nc3ccccc3nc1n2-c1ccc(C)cc1	-2.2	·	1	8	-11%
CCN1CCCC1CNS(=O)(=O)c1ccc(C(=O)Nc2ccccc2)cc1 (configuration not stated)	0.1	0	-12	-5	2%
Cc1ccc2nc(N/C(=N/S(=O)(=O)c3cccs3)c3ccccc3Cl)sc2c1	8.1	-11	·	16	-6%
CCOc1ccc(C(C)C)cc1S(=O)(=O)N1CCOCC1	-1.5	-6	·	-4	-3%
CC1(C)CC(=O)C2=C(C1)NC1=C(C(=O)c3ccccc31)C2c1ccc(Cl)cc1 (configuration not stated)	22	95	-9	-17	45%
Cc1nc(NC(=O)/C=C/c2ccccc2)n[nH]1	-0.2	59	-21	-5	6%
S=C(c1ccc(-c2ccc(Cl)cc2Cl)o1)N1CCCCC1	1.1	71	-17	2	-8%
O=C1c2ccccc2C(=O)N1CCc1csc(NNc2nc(CCN3C(=O)c4ccccc4C3=O)cs2)n1	-2.6	-6	·	0	13%
O=C(COC(=O)c1ccc(O)cc1)Nc1ccccc1[N+](=O)[O-]	2.4	-6	·	-2	-22%
Cc1ccc(CCCOC(=O)C[N+]2(C)CCOCC2)cc1	6.7	-5	-22	3	1%
CC(C)Cn1cnc2c1c(=O)n(CC(=O)N(C)C)c(=O)n2Cc1ccccc1	-3.9	-10	·	-1	8%

A portion from further up:
SMILES	RecA splice inh	Mtb bLac sens	YopH inh	Arbovirus anti	Mtb growth	others
CCOCCCn1cnc2c(c1=O)c1nc3ccccc3nc1n2-c1ccc(C)cc1	-2.2	·	1	8	-11%
CCN1CCCC1CNS(=O)(=O)c1ccc(C(=O)Nc2ccccc2)cc1 (configuration not stated)	0.1	0	-12	-5	2%
